# Compound activity from PubChem.
# KCNQ2 enhance: enhances the rat KCNQ2 potassium channel; CHO-K1 KCNQ2, FluxOR thallium flux fluorescence; stronger effect = higher value; B-score at 10 µM; 310,000 tested, 0.54% active;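 active = fluorescence ratio B-score at least 3 SD of library B-scores, with initial fluorescence B-score within 3 SD, cut at about 5.3 in these data; same plate scores as AID 2156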;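 also: B-score of peak minus minimum over baseline fluorescence ratio after K+ and Tl+ stimulus; positive B-score means potentiation of KCNQ2 with more thallium influx and brighter signal; only the inactives scoring about 0 or higher are listed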
# Target sequence (O88943 whole entry, looked up): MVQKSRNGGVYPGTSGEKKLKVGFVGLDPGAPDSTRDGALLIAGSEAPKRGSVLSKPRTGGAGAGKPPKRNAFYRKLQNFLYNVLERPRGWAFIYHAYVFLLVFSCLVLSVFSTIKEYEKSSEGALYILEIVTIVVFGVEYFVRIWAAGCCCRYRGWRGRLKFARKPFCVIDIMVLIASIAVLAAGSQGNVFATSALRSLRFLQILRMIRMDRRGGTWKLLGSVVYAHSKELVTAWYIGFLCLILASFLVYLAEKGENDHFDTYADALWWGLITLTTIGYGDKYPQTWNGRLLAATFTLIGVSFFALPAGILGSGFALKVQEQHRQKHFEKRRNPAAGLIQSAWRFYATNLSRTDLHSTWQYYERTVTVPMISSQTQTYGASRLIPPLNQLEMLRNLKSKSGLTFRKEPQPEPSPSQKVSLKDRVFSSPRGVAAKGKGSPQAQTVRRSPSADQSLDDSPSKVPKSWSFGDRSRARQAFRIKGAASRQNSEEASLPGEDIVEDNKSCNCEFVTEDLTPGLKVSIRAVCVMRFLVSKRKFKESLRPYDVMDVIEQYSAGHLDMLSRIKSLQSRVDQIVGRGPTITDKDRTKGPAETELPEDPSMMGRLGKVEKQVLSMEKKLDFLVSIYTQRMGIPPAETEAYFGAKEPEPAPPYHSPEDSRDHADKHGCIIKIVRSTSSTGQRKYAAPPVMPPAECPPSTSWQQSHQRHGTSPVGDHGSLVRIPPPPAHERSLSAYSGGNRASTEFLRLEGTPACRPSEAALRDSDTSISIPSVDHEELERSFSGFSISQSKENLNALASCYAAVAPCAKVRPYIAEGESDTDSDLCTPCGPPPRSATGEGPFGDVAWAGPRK
# KCNQ2 enhance baseline: recorded beside KCNQ2 enhance, whose call it bears; B-score; compound at 10 µM; measured here: initial fluorescence intensity artifact check;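 brightness before thallium and not channel activity; 0 = typical well and far values either way flag optical interference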
# The depositor's hits bear a star. An excerpt; rates above refer to the full screens.
SMILES,KCNQ2 enhance,KCNQ2 enhance baseline
C=CCOc1cccc(C(=O)N2CCC(CCC(=O)NC3CC3)CC2)c1,1.04,-0.95
COC(=O)C1=C(C)N(CCc2c[nH]c3ccccc23)C(=O)C1,0.03,0.5
CCCC(=O)Nc1ccc(NC(=O)c2ccco2)cn1,1.48,0.17
CC(=O)NC12CC3CC(C1)CC(C(=O)Nc1nc4ccc(F)cc4s1)(C3)C2,1.31,-2.26
Cc1ccc2c(c1)N(C(=O)CCC(=O)NC1CCCCCC1)CCO2,0.41,-0.46
CC(C)n1c2ccccc2c2nc3ccccc3nc21,0.15,-1.38
Cn1c(C(=O)N2CCN(c3nc4ccccc4s3)CC2)cc2sccc21,0.95,0.26
N#Cc1c(-c2ccccc2)nc(SCc2cccc(Cl)c2)[nH]c1=O,2.7,0.53
CCN1C(=O)C(NC(C)=O)c2cc(OC)ccc21 (stereo unspecified),0.4,0.63
CCOc1cc(C(=O)NCc2ccc3c(c2)OCO3)cc(OCC)c1OCC,0.27,2.03
CC1CN(S(=O)(=O)c2cccc(C(=O)OCc3cc(=O)oc4cc(O)ccc34)c2)CC(C)O1 (stereo unspecified),1.49,-0.5
COCCNC(=O)c1cn(C)c(=O)c2cc(OC)c(OC)cc12,1.02,0.01
CCOC(=O)C1CCN(C(=O)c2ccccc2NC(C)=O)CC1,0.03,-0.56
O=C(NC1CC1)c1cc(Cl)ccc1[N+](=O)[O-],0.07,-0.71
c1ccc(N2CCN(c3nc4cc5c(cc4s3)OCCO5)CC2)cc1,0.83,-0.62
O=C(CSc1nc2cc3c(cc2c(=O)n1CCC1=CCCCC1)OCO3)NCc1ccco1,0.65,-1.03
O=C(NCCn1c(C(F)(F)F)nc2cc(C(F)(F)F)ccc21)[C@H]1CCCN1c1nc(CN2CCCCC2)cs1,0.88,0.65
O=[N+]([O-])c1cc2c(c(CSc3nnnn3-c3ccc(O)cc3)c1)OCOC2,1.04,1.35
CC1C/C(=N/NC(=O)c2cccs2)CC(C)(C)C1 (stereo unspecified),0.19,-0.19
COc1ccc(C(=O)Nc2cc3c(oc2=O)CCCC3=O)cc1,1.3,0.19
NC(=O)N/N=C/c1ccccc1OCC(=O)NCc1ccccc1,0.8,-1.33
Cc1ccccc1NCN1C(=O)C2CCC(C)(C1=O)C2(C)C (stereo unspecified),0.17,0.14
COC(=O)c1c(C)[nH]c(C(C)=O)c1C,0.15,-3.31
COc1cccc(OC)c1C(=O)Oc1ccc2c(c1)O/C(=C\c1ccncc1)C2=O,0.08,-0.98
CCOCCCn1c(=S)[nH]c2cc(C(=O)N3CCN(c4ccccc4)CC3)ccc2c1=O,1.25,0.14
O=C(Oc1ccc(Cl)cc1)N1CCCCC1,0.4,-2.49
Cc1ccccc1C(=O)N1CCC(C(=O)Nc2ccccc2Cl)CC1,0.5,-2.95
Cc1ccc(N(CC(=O)Nc2c(C)n(C)n(-c3ccccc3)c2=O)S(C)(=O)=O)c(C)c1,0.05,0.01
CCOC(=O)CCC(NC(=O)CC(=O)NC(CCC(=O)OCC)C(=O)OCC)C(=O)OCC (stereo unspecified),0.66,-0.34
Cc1ccc2c(CN(C)Cc3ccc(Cl)cc3)cc(=O)oc2c1,0.37,0.54
CCOc1ccc(CCNC(=O)CCNS(=O)(=O)c2ccc(Br)cc2)cc1OCC,2.71,-1.54
Nc1cc(=O)[nH]c(SCC(=O)N2CCc3ccccc3C2)n1,1.64,-2.33
CCOC(=O)c1cc(C(=O)OCC)c2ccccn2c1=O,1.46,-0.55
Clc1ccc(CN2CCN(c3ncccn3)CC2)cc1Cl,2.74,0.84
Cc1nn(-c2ccccc2)c(C)c1C(=O)OCC(=O)N1CCN(S(=O)(=O)c2ccccc2)CC1,0.29,-0.81
COC(=O)CSc1ccc(C#N)c(SCC(=O)OC)c1,0.36,-1.53
CC1=NOC2(C1)N(C)c1ccccc1C2(C)C (stereo unspecified),0.08,0.08
COc1nc(N)nc(NC(=O)c2cccs2)c1N=O,1.87,0.66
CCC1CCCCN1CCCNC(=O)c1ccc(N2CCCC2=O)cc1 (stereo unspecified),1.84,0.19
O=C(NCc1ccccn1)c1ccc(Cn2cc(Br)cn2)o1,1.31,-0.16
Cc1ccc(Cn2nnc3c(=O)n(Cc4ccccc4C)cnc32)cc1,0.41,1.1
Cc1nc(SCC(=O)NCc2ccccc2)c2oc3ccccc3c2n1,0.4,1.53
COc1ccc(-c2oc3ccc(-c4ccc5c(c4)OCO5)cc3c2-c2ccc(OC)nc2)cc1,0.02,-0.37
C=CCOc1cccc(C(=O)NC(c2ccccc2)C(C)C)c1 (stereo unspecified),0.36,-0.86
Cc1ccc(S(=O)(=O)NCCC(c2ccccc2)c2ccco2)cc1 (stereo unspecified),0.95,0.08
CN(C)c1ccc(/C=C2\CCCc3c2nc2ccccc2c3C(=O)O)cc1,1.71,-1.37
COc1ccc(N2CC(C(=O)N[C@@H](C)C(=O)NC(C)c3ccccc3)CC2=O)cc1 (stereo partly specified),0.54,1.36
O=C(Nc1ccccc1OC(F)F)C1CC(=O)N(Cc2ccccc2)C1 (stereo unspecified),1.09,-0.2
CCn1nnc2cc(C(=O)NCCc3ccccc3F)ccc21,0.46,0.47
CCOC(=O)c1[nH]c(CSc2nnc(-c3ccncc3)n2CCOC)c(C(=O)OCC)c1C,0.24,-2.17
CCS(=O)c1scc(-c2ccc(Cl)cc2)c1C#N (stereo unspecified),1.69,-1.98
COCCn1c(SCC(=O)Nc2cccc(F)c2)nc2c([nH]c3ccccc32)c1=O,0.51,-0.07
COC(=O)C(N)Cc1ccc(O)cc1 (stereo unspecified),0.74,-2.17
N#Cc1cnc2sc3ccccc3n2c1=N,0.42,0.91
COc1ccc(-n2c(=O)[nH]c3cc(C(=O)NCCc4ccc(OC)c(OC)c4)ccc3c2=O)c(OC)c1,0.29,0.26
Cc1cc(C)cc(NC(=O)CSc2nnc(CNC(=O)c3ccco3)o2)c1,0.44,0.36
COCCSc1nnc(NC(=O)C2CCCCC2)s1,0.44,0.27
CC(C)CNC(=O)c1cccc(NC(=O)Cc2ccc(Cl)cc2)c1,2.22,0.33
O=C1NC[C@@H](Cc2cccc3ccccc23)N(CCC23CC4CC(CC(C4)C2)C3)C1=O,0.18,-1.83
Cc1c(S(=O)(=O)Nc2cccc(Cl)c2)c(=O)n(C)c(=O)n1C,1.15,-1.74

# Part of the list above in order of number of heavy atoms, rising:
SMILES,KCNQ2 enhance,KCNQ2 enhance baseline
CCS(=O)c1scc(-c2ccc(Cl)cc2)c1C#N (stereo unspecified),1.69,-1.98
O=C(Nc1ccccc1OC(F)F)C1CC(=O)N(Cc2ccccc2)C1 (stereo unspecified),1.09,-0.2
CN(C)c1ccc(/C=C2\CCCc3c2nc2ccccc2c3C(=O)O)cc1,1.71,-1.37
O=C1NC[C@@H](Cc2cccc3ccccc23)N(CCC23CC4CC(CC(C4)C2)C3)C1=O,0.18,-1.83
CCOC(=O)c1[nH]c(CSc2nnc(-c3ccncc3)n2CCOC)c(C(=O)OCC)c1C,0.24,-2.17

# New compounds follow:
SMILES,KCNQ2 enhance,KCNQ2 enhance baseline
Cn1nnnc1SCC(=O)Nc1ccccc1N1CCCCC1,0.04,1.2
CS(=O)(=O)N(CC(=O)NCCSCc1cccc(Cl)c1)c1ccccc1F,0.21,0.26
CC(=O)Nc1ccc(NC(=O)c2cccc3ccccc23)cc1,0.02,-0.59
CCCCC(=O)Nc1ccccc1N1CCOCC1,1.57,-0.21
Cc1ccc(OCC2Cn3c(nc4c3c(=O)[nH]c(=O)n4C)O2)cc1C (stereo unspecified),1.95,-0.03
O=C(OCC(=O)N1CCCc2ccccc21)c1ccccc1[N+](=O)[O-],1.97,-1.41
CCN(CC)c1ccc(C(=O)NC(=S)Nc2cc(S(=O)(=O)N3CCOCC3)ccc2-n2cncn2)cc1,0.01,0
c1ccc(Oc2cccc(OCCCCN3CCCC3)c2)cc1,1.26,-0.98
O=S(=O)(c1ccc(-c2nnc(SCc3nnc(-c4ccccc4)o3)o2)cc1)N1CCCC1,0.4,-0.12
Nc1ccc(Cc2ccc(N)c(C(=O)O)c2)cc1C(=O)O,0.59,0.24
O=C(NCCCn1ccnc1)Nc1ccc(Cl)cc1Cl,0.04,1.58
CCCCC(CC)C(=O)Nc1cc(C(=O)NCc2ccc(C)cc2)ccc1N1CCC2(CC1)CC(c1ccccc1)=NO2 (stereo unspecified),1.72,0.11
COc1ccc(CCC(=O)NNC(=O)Nc2ccc(OC)c(OC)c2)cc1,0.63,-1.26
Cn1nc(-c2ccc(OCC(=O)NCC3CCCO3)cc2)c2ccccc2c1=O (stereo unspecified),0.56,0.84
O=C(Oc1nsnc1N1CCOCC1)N1CCCC1,0.22,5.33

# Compound profiles, from the list above. Order of values: KCNQ2 enhance, KCNQ2 enhance baseline
# `Cc1ccc(OCC2Cn3c(nc4c3c(=O)[nH]c(=O)n4C)O2)cc1C` (stereo unspecified) across the screens: 1.95, -0.03
# `c1ccc(Oc2cccc(OCCCCN3CCCC3)c2)cc1` across the screens: 1.26, -0.98
# `CCCCC(=O)Nc1ccccc1N1CCOCC1` across the screens: 1.57, -0.21
# `O=C(NCCCn1ccnc1)Nc1ccc(Cl)cc1Cl` across the screens: 0.04, 1.58
# `CC(=O)Nc1ccc(NC(=O)c2cccc3ccccc23)cc1` across the screens: 0.02, -0.59

# Going on with the list.
SMILES,KCNQ2 enhance,KCNQ2 enhance baseline
CC(C)(C)S(=O)(=O)/C(C#N)=N/Nc1ccc(C#N)cc1,1.28,-0.09
CCOc1ccc2nc(NC(=O)Nc3cccs3)sc2c1,1.79,-0.4
CC(=O)Nc1ccc(C(=S)NCC2(N(C)C)CCCCC2)cc1,0.63,-0.01
CCC1COCCS(=O)(=O)N1Cc1ccccc1C (stereo unspecified),1.49,0.18
CCOCC(=O)Nc1ccc2c(c1)N(S(=O)(=O)c1cccs1)CCC2,0.29,-0.42
CC(O)CN(CCC(N)=O)CCC(N)=O (stereo unspecified),0.01,1.36
O=C(CSc1nnc(-c2cccs2)n1CC1CCCO1)c1cc2ccccc2o1 (stereo unspecified),0.05,0.04
CC(C)NC(=O)CSc1nc(-c2ccccc2)cs1,0.09,-0.5
CC(Sc1nnc(COc2ccccc2)n1-c1ccccc1)C(=O)O (stereo unspecified),1.56,0.96
CC(C)CCN(C)C1CCN(C(=O)Nc2c(F)cccc2F)CC1,1.1,-0.59
CC(=O)N1CCN(S(=O)(=O)c2ccc(C)cc2)C1C(C)C (stereo unspecified),0.01,1.08
O=C(NC1CCCC1)C1c2ccccc2C(=O)N1C1CCCCC1 (stereo unspecified),0.43,1.26
Cc1ccccc1C(=O)NNC(=O)C(C)N1C(=O)c2ccccc2C1=O (stereo unspecified),0.78,-0.87
O=[N+]([O-])c1ccc(-c2nc(Nc3cccc(O)c3)c3ccccc3n2)cc1,0.47,-0.13
O=C(COc1ccc2ccc(=O)oc2c1)N1CC[C@@]2(O)CCCC[C@H]2C1,2.29,0.02
CC(C)NC(=O)C(Cc1ccccc1)N1C(=O)c2ccccc2C1=O (stereo unspecified),0.23,-0.35
COc1ccc(CNC(=O)c2c(-c3c(F)cccc3Cl)noc2C)cc1,0.35,-1.13
NC(=O)C1CCN(Cc2nc3cc(C(F)(F)F)ccc3c(=O)[nH]2)CC1,1.64,0.02
CC(C)(C)NC(=O)c1cccc(NC(=O)c2ccco2)c1,1.01,-0.13
CCOc1cc(C(=O)NC)cc(Br)c1OCc1ccccc1,0.28,0.54
CCn1nc(C)c(CN2CCC(n3nccc3NC(=O)CCCc3ccccc3)CC2)c1C,1.52,-0.17
NC(=O)COC(=O)/C=C/c1cccc(Br)c1,0.07,-1.4
O=C(CCSc1ccccc1)Nc1ccc(S(=O)(=O)N2CCOCC2)cc1,0.53,-0.78
CN1CCN(c2cc3c(cc2F)c(=O)c(C(=O)O)cn3CCF)CC1,1.03,0.33
COc1ccc(-c2nc(CSCC(=O)NCCCN3CCCC3=O)c(C)o2)cc1,0.68,-0.1
Fc1cccc(NC(=S)Nc2cccc3ccccc23)c1,2.15,-0.4
CC(N)C12CC3CC(CC(O)(C3)C1)C2 (stereo unspecified),0.47,-0.79
O=C(CSc1nnc(CNC(=O)c2ccco2)o1)c1ccccc1,1.87,-0.27
CCCS(=O)(=O)N1CCN(S(=O)(=O)c2ccccc2[N+](=O)[O-])CC1,0.93,-0.02
O=C(COc1ccc([N+](=O)[O-])cc1)NCCC1=CCCCC1,0.99,1.74
NC(=O)[C@H](Cc1cc2ccccc2s1)NC(=O)[C@@H]1CC2(CC(c3cccc(NC(=O)[C@@H]4CCC(=O)N4)c3)=NO2)CN1C(=O)/C=C/Sc1ccccc1 (stereo partly specified),0.42,-0.01
Cc1cnc(NC(=O)Cc2ccc(C)c(C)c2)s1,0.07,-1.31
CC(C)(C)c1cc(S(=O)(=O)CCc2ccncc2)cc(C(C)(C)C)c1F,0.01,-0.23
CCCCCn1c(NC2CCCCC2)nc2c1c(=O)[nH]c(=O)n2C,0.01,-1.22
Cc1nc2ccc(C(=O)O)cc2nc1C,0.16,0.7
COc1ccc(-c2cc(C(F)(F)F)nc(SCC(=O)N(C)Cc3cnn(C)c3C)n2)cc1OC,0.92,0.46
Cc1c(OCc2ccccc2)c(=O)ccn1Cc1ccccc1,0.02,-2.69
CCSc1nnc(NC(=O)CSc2nc3c(c(=O)n2CC)SC(C)C3)s1 (stereo unspecified),1.99,-0.13
S=c1[nH]nc(-c2ccncc2)n1/N=C/c1cccc(Cl)c1,0.49,-1.76
COc1ccc(CCNC(=O)/C=C/c2cc(OC)c(OC)c(OC)c2)cc1OC,0.83,-0.68
COCc1cc(CN(C)C(=O)C2CCC(=O)N(Cc3cccc(OC)c3)C2)[nH]n1 (stereo unspecified),1.08,-1.7
Cc1ccc(C(=O)Nc2ccc3c4c(cccc24)CC3)cc1[N+](=O)[O-],0.71,-0.13
